ClpP mod – qHTS Assay for Activators of ClpP. 1.9% of 340,000 active. Potency, µM (doses to about 57.5 µM), for inactives: at the top dose activity change, negative = active. purified B. subtilis ClpP, FRET peptide cleavage, 20 min. ATP-dependent Clp protease proteolytic subunit (Bacillus subtilis (strain 168)), P80244; active = well fitted falling curve with a large enough effect; inconclusive = small, poorly fitted or top-dose-only effect; inactive = no such curve, though single readings can be large or run the other way; note: potency is the fitted concentration of half-maximal effect; the source files actives as falling curves though it sought activators and does not explain the sign; nearly all actives have a fitted effect of over 65% in size; many hits overshoot -100%
Target sequence (P80244 whole entry, looked up): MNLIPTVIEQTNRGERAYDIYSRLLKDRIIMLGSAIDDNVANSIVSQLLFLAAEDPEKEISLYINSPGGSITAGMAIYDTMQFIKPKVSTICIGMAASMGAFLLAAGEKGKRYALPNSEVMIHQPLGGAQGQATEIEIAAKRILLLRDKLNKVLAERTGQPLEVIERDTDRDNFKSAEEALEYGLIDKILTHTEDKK
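FRET quenching reversal measured ClpP activation: 10 microg/mL B. subtilis ClpP at pH 8 with the FRET-FV decapeptide, read at 430 nm after 320 nm excitation. The 20-min minus 0-min signal was scaled between DMSO/no-enzyme wells and ADEP (5.8 microM final).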
gsp antagonist – qHTS for Antagonists of gsp, the Etiologic Mutation Responsible for Fibrous Dysplasia/McCune-Albright Syndrome: qHTS; gsp-mutant cells, cAMP HTRF, 30 min; control for the full effect not named in the record; Potency, µM (top dose mostly 76.9 µM), inactives show at the top dose activity change, negative = inhibition, hits mostly inhibitors; 0.4% of 340,000 active; active = falling curve of any shape with a large fitted effect; inconclusive = falling curve, mostly with a smaller effect; inactive = flat or rising curve; cell line not stated here;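 note: intracellular cAMP measured with PDE inhibitor Ro 20-1724 present during compound exposure; potency is the fitted concentration of half-maximal effect; % is set by controls: 0 for no effect and ±100 for the full control effect; nearly all actives have a fitted effect of over 65% in size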
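HTRF cAMP measurement after 30 min RT detection following 30 min, 37C compound treatment alongside […] (added as 300 uM solution) in G418-selected cells seeded at 2000/well and grown 16–24 h.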
TRPML1 inh – qHTS for Inhibitors of the Human Mucolipin Transient Receptor Potential 1 (TRPML1). 0.02% of 390,000 active. TRPML1-inducible cells, Ca2+ dye fluorescence, FDSS; active compounds read low; inhibition of EC80 agonist-evoked calcium signal. activity change, negative = inhibition, % (concentration not given with the values). AID 624415, 2012. Mucolipin-1 (Homo sapiens), Q9GZU1; in the data active means activity change below about -50%; inconclusive means about -30% to -50%; inactive means above about -30%;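 note: stimulus is agonist 54-4 at its EC80 concentration; % is set by controls: 0 for no effect and ±100 for the full control effect; the text of the record puts the active cut at -80%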
Target sequence (Q9GZU1 whole entry, looked up): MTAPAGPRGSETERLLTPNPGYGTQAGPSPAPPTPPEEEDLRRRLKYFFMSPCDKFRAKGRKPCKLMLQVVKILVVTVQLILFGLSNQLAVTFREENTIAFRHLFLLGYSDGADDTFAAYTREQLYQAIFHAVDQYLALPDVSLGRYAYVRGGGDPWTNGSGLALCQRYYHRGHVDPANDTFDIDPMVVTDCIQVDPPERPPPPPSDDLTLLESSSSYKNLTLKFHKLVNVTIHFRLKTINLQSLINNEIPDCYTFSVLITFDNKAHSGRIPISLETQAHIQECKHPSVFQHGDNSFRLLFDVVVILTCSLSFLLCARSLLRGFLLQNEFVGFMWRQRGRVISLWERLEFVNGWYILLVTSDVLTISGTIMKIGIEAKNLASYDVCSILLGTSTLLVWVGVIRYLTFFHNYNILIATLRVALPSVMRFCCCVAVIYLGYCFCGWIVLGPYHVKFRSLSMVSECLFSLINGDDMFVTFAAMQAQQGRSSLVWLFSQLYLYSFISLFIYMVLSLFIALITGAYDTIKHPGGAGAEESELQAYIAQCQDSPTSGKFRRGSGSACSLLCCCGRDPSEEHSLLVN
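Tet-induced TRPML1-DL cells loaded with Ca8 no-wash calcium dye were read kinetically on FDSS. Compound addition was followed by EC80 agonist 54-4 (4 uM final); inhibition was read over 110 s.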
gsp ag – qHTS for Agonist of gsp, the Etiologic Mutation Responsible for Fibrous Dysplasia/McCune-Albright Syndrome: qHTS | gsp mutant cells, cAMP HTRF, 30 min; control for the full effect not named in the record | Potency, µM (titrated, usually from 76.9 µM), for inactives: at the top dose activation (cAMP increase), actives largely listed as activators | 0.13% of 340,000 active; active = well fitted activation curve with a large enough effect; inconclusive = small, poorly fitted or top-dose-only effect, or another doubt; inactive = no such curve, though single readings can be large or run the other way; cell line not stated here;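 note: phosphodiesterase inhibitor Ro 20-1724 added with compounds to block cAMP breakdown; potency is the fitted concentration of half-maximal effect; nearly all actives have a fitted effect of over 60% in size; about a fifth of the inactives were tested at one dose only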
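Cells stably selected in G418 were plated at 2000/well, grown 16-24 hr, then given compounds in DMSO with the PDE inhibitor […] (300 uM solution added) for 30 min at 37C; cAMP was read by HTRF.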
Menin MLL FP FL – qHTS Assay for Inhibitors Targeting the Menin-MLL Interaction in MLL Related Leukemias: Competition With Fluorescein Labeled MLL-derived Peptide; Fluorescence polarization, fluorescein-MLL peptide displacement from menin; FP activity change, % at 61.4 µM; 290,000 tested, under 10 active; inconclusive = falling polarisation curve, or a change in total fluorescence; inactive = total fluorescence flat and polarisation flat or rising; no compound was filed as active; the % refers to the polarisation; negative = inhibition;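 note: % of control where 0% means no effect; inhibitors lower the polarisation; unlabelled MLL peptide was the positive control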
TRPML1 ag – qHTS for Agonists of the Human Mucolipin Transient Receptor Potential 1 (TRPML1); AID 624414, 2012; activation, % (test concentration not listed); 0.12% of 410,000 active; Mucolipin-1 (Homo sapiens), Q9GZU1; TRPML1-expressing cells, Ca2+ dye fluorescence, FDSS; host cell line not named in the record; reference of the full effect not given here; in the data active = activation above about 50%; inconclusive = about 30% to 50%; inactive = below about 30%; note: 0% is about no effect; the text of the record puts the active cut at 80%
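Tetracycline-induced TRPML1-DL cells are seeded and incubated overnight before loading with a no-wash Ca2+ dye and quencher. Agonist activity is taken from the 110 s fluorescence read following compound pin-transfer on an FDSS, before EC80 54-4 challenge.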
Starred values were filed as active, the others as inactive; ? = inconclusive; / = not tested or not shown; [ ] = remark or other dose.

SMILES | ClpP mod | gsp antagonist | TRPML1 inh | gsp ag | Menin MLL FP FL | TRPML1 ag
Cc1nc2c(Cl)cccc2[nH]1 | -0.2% | 12% | -10 | 3% | 4.9 | 0.1
Cc1[nH]c2ccccc2c1/C=N/Nc1nc(N2CCCCC2)nc(N2CCCCC2)n1 | 1.1% | -9% | -3 | 0% | -2.4 | -0.9
CCOCC(=O)Nc1c(C(=O)Nc2ccccc2OC)oc2ccccc12 | 0.7% | 0% | 4 | ? | 1.8 | 1.6
CC(=O)Nc1cccc(-c2nc(-c3ccccc3)no2)c1 | -6.0% | / | 1 | / | / | -0.6
O=C(Cc1ccc(Cl)cc1)NCc1ccccc1Cl | -0.2% | 12% | 16 | -1%[15.4 µM] | -2.1 | -1.7
COc1cc2c(cc1OC)C(c1ccccc1)N(C(=O)C(C)(C)C)CC2 (configuration not stated) | -5.1% | ? | -20 | ? | -0.2 | 1.9
CC(=O)N1CCc2cc(CNS(=O)(=O)c3cccs3)ccc21 | -0.2% | / | -10 | / | / | 0.4
CCN(CCCNC(=O)CCCn1c(=O)[nH]c2ccccc2c1=O)c1cccc(C)c1 | -5.4% | -31% | 2 | 2% | -0.1 | 2.8
COc1ccc2nc(SCc3ccccc3C)nc(C)c2c1 | 7.1µM* | -17% | 2 | -34%[inhibitor] | 2.7 | 3.4
Cc1cc(N2C(=O)C(O)=C(C(=O)c3ccco3)C2c2cccc(Cl)c2)no1 (configuration not stated) | -1.1% | -22% | 41 | ? | / | 3.1
CN(C)S(=O)(=O)c1ccc(NC(=O)N2CCOCC2)cc1 | / | 11% | -12 | -20% | -1.7 | 0.2
N#Cc1nc(Cc2cccc3ccccc23)oc1NCCCN1CCOCC1 | -3.1% | 2% | 18 | 15% | 4.4 | 3.2
CC1(C)CC(=O)C=C(Nc2ccc(Br)cn2)C1 | 1.8% | 3% | 11 | 0% | -1.5 | -0.4
COc1ccc(CCNC(=O)CCS(=O)(=O)c2ccc3c(c2)CCN3C(C)=O)cc1OC | 1.5% | 10% | -2 | 21% | -0.9 | -0.1
Cc1ccnc(NC(=O)c2cccs2)c1 | 0.2% | 1% | -17 | -40%[inhibitor] | 0.4 | -1.0
Cc1ccccc1-n1ccnc1SCC(=O)NC1CCCC1 | -0.4% | 2% | -10 | -26% | -0.2 | -0.8
CC(OC(=O)C1CC(=O)N(Cc2ccco2)C1)C(=O)Nc1cccc(C#N)c1 (configuration not stated) | / | -9% | -6 | -13%[15.4 µM] | / | -0.4
COc1ccc(NC(=O)NNS(=O)(=O)c2cc(C)ccc2C)cc1OC | 0.6% | -1% | -5 | 16%[15.4 µM] | -3.7 | -0.3
CC1CCCC(=NNc2ccc3ccccc3n2)C1 (configuration not stated) | -27% | 3% | 18 | -9% | / | 0.2
CN(C)c1ccc(S(=O)(=O)N2CCCCC2)cc1NC(=O)CCNC(=O)c1ccccc1Cl | -0.3% | -8% | 4 | 21% | / | -0.7
C=C1C(=O)[C@]23C[C@H]1CCC2[C@]1(C)C(=O)CC[C@@](C)(C(=O)O)C1C[C@@H]3O (some centres not stated) | -1.1% | / | -14 | / | / | -0.3
CCC(C)C(NC(=O)OC(C)(C)C)C(=O)NC1COC2CC(n3cc(C)c(=O)[nH]c3=O)OC12 (configuration not stated) | / | / | -1 | / | 0.8 | 0.6
O=C(CCN1C(=O)C2C3CC(C(Br)C3Br)C2C1=O)OCC(=O)c1ccccc1 (configuration not stated) | -0.5% | -20% | 4 | 9%[15.4 µM] | -0.6 | 0.4
COc1ccc(C(=O)OCC(=O)c2ccc3c(c2)NC(=O)CO3)cc1OC | 0.6% | -2% | -19 | ? | / | -0.3
O=C(CSc1nnc(NC2CCCCC2)s1)Nc1ccc2c(c1)C(=O)c1ccccc1C2=O | -0.2% | -15% | -11 | -22% | -0.9 | 1.3
COc1ccc(NC(=O)C(=O)NCCc2sc(-c3ccc(Cl)cc3)nc2C)cc1 | -7.7% | / | 5 | / | / | -0.7
CCN(CC)S(=O)(=O)c1cccc(C(=O)NCC(c2ccccc2)N(C)C)c1 (configuration not stated) | / | / | 24 | 4%[15.4 µM] | 0.3 | -0.1
C=CCn1c(C)nnc1SCC(=O)Nc1nccs1 | -1.3% | -4% | -5 | 3% | -0.3 | 0.9
Clc1ccccc1CN(Cc1ccco1)Cc1nnnn1C1CCCC1 | -2.3% | 20µM* | 67 | -6% | -0.8 | 2.9
CCc1ccc(NC(=O)CC2C(=O)N(c3cccc(C)c3)C(=O)N2Cc2ccco2)cc1 (configuration not stated) | 2.1% | / | 36 | / | / | 0.9
C=CCn1c(SCC(=O)NC(=O)c2cccc([N+](=O)[O-])c2)nnc1-c1ccccc1 | -2.6% | -5% | -13 | 13% | 6.3 | 5.6
Cn1c(N)c(C(=O)c2ccc(Cl)c(S(=O)(=O)N3CCCCCC3)c2)c(=O)n(C)c1=O | 0.5% | -26% | -7 | 7% | / | 0.4
CCc1cc2c3c(c(=O)oc2cc1O)CCCC3 | 10µM* | 1% | 7 | -4% | -0.8 | -0.1
Cc1ccc(OCC(=O)Nc2ccc3c(c2)sc(=O)n3C)cc1 | -4.1% | / | -4 | / | / | 0.6
CCCCNC(=O)Nc1nnc(-c2ccc(OCC)cc2)o1 | 25µM* | 7% | 36 | 18% | 2.1 | 0.2
CCOCCCNC(=O)C(c1ccc(OC)cc1)N(Cc1cccs1)C(=O)c1ccccn1 (configuration not stated) | / | -10% | 20 | 5%[15.4 µM] | -0.1 | 1.1
CCOC(=O)c1ccc(NC(=O)CN2C(=O)C(C)(C)c3ccccc32)cc1 | -1.4% | / | -6 | / | / | 1.6
FC(F)(F)c1ccc2c(c1)NCC1CCCN21 (configuration not stated) | / | -4% | 7 | 10%[15.4 µM] | -2.0 | 2.2
O=C(CCN1C(=O)C2(OCCO2)c2ccccc21)c1ccccc1 | 1.0% | 4% | -2 | -3% | -0.5 | -0.5
C=CCOc1ccc(CNc2nccs2)cc1OCC | 0.9% | 16% | 7 | 29% | 0.3 | 0.5
O=C1/C(=C/c2ccccn2)SC(=S)N1Cc1ccccc1 | ? | 9% | -6 | -25%[15.4 µM] | -0.5 | 0.9
COc1ccccc1NC(=S)NC(=O)/C=C/c1ccco1 | 1.1% | -11% | 16 | -9% | ? | 0.8
CCCCn1cnc2c(SCc3ccc([N+](=O)[O-])cc3)nc(N)nc21 | -29% | -2% | -11 | 1% | / | 1.1
CCc1nn(CC(=O)NCCc2ccc(OC)cc2OC)c(=O)c2cc3c(OC)cccc3n12 | ? | / | -8 | / | / | -0.1
O=C(COC(=O)Cc1c(F)cccc1Cl)NC(=O)c1ccccc1 | 1.2% | 7% | -15 | -7% | / | 0.0
COc1ccc(Cl)cc1NC(=O)CSc1cn(CC(=O)N2CCCCCC2)c2ccccc12 | 0.1% | / | 20 | / | / | -0.3
COC(=O)c1ccc(CNC(=O)[C@@H]2CCCN2S(=O)(=O)c2ccccc2F)cc1 | -2.4% | 6% | -8 | -20% | / | 2.5
CCn1ccc(C(=O)Nc2sc3c(c2C(=O)OC)CCC3)n1 | 3.7% | ? | 6 | 1% | / | -0.6
O=C(CSc1ncc(-c2ccc(F)cc2)n1Cc1ccco1)Nc1ccc2c(c1)OCO2 | -6.3% | -17% | -13 | 8% | -0.4 | 0.9
CC1(C)NC(=O)N(CCCCOc2ccc(Cl)cc2)C1=O | -0.5% | -12% | -4 | -7% | 2.4 | 0.3
Cc1[nH]n(-c2ccc([N+](=O)[O-])cc2)c(=O)c1C=NCCN1CCN(C(=O)c2ccc(Br)cc2)CC1 | -1.7% | -2% | -7 | 0% | 8.3 | 3.2
COc1ccc(N(CC(=O)Nc2ccccc2C(N)=O)S(=O)(=O)c2ccc(C)c([N+](=O)[O-])c2)cc1 | -3.2% | ? | -10 | -28% | 0.3 | 0.8
COc1ccc(Nc2ccc(N3C(=O)CCC3=O)cc2[N+](=O)[O-])cn1 | 2.1% | 5% | 29 | 12% | -5.0 | -0.9
CC(C)(CCl)C(=O)Nc1ccnc(-c2ccncc2)n1 | / | / | -1 | -3%[15.4 µM] | 3.1 | 0.2
O=C(/C=C/c1ccco1)NCc1ccccn1 | -1.6% | 11% | 0 | 7% | -9.8 | 0.9
OCC1(CC2CCCCO2)CCN(C/C=C/c2ccccc2)CC1 (configuration not stated) | / | 21% | -10 | 6%[15.4 µM] | 0.5 | -0.4
O=C(CCCCn1c(=O)[nH]c2ccccc2c1=O)NC1CCN(Cc2ccccc2)CC1 | -23% | 8% | -20 | ? | 0.2 | 0.0
COCc1cc(=O)[nH]c(Sc2c(-c3ccccc3)c3ccc(Cl)cc3[nH]c2=O)n1 | -4.7% | -1% | -10 | ? | 5.7 | -0.7
CC1Oc2ccccc2N(CC(=O)N(Cc2ccccc2)Cc2ccccn2)C1=O (configuration not stated) | 0.5% | -18% | -1 | 16% | 1.1 | 0.0
COc1cc(S(C)=O)ccc1-c1nc2ncccc2[nH]1 (configuration not stated) | 4.6% | -1% | -1 | / | -0.6 | 0.2
COc1ccc(N2C(=O)CSC23CCCCC3)cc1 | -0.1% | 0% | -2 | -4% | 2.1 | 0.0
Cc1sc(N)nc1-c1c(C)n(C)c2ccccc12 | / | -6% | 13 | 4%[15.4 µM] | -0.3 | -0.2
Cc1ccc(NS(=O)(=O)c2ccc3c(c2)NC(=O)C(C)C(=O)N3)cc1C (configuration not stated) | 1.3% | 11% | 1 | -17% | -1.1 | 0.5

Single values from above.
CCN(CC)S(=O)(=O)c1cccc(C(=O)NCC(c2ccccc2)N(C)C)c1 (configuration not stated) in TRPML1 inh is listed with 24
C=CCn1c(SCC(=O)NC(=O)c2cccc([N+](=O)[O-])c2)nnc1-c1ccccc1 in TRPML1 inh is listed with -13

For reference, part of the list above:
SMILES | ClpP mod | gsp antagonist | TRPML1 inh | gsp ag | Menin MLL FP FL | TRPML1 ag
COc1cc(S(C)=O)ccc1-c1nc2ncccc2[nH]1 (configuration not stated) | 4.6% | -1% | -1 | / | -0.6 | 0.2
COc1ccc(N2C(=O)CSC23CCCCC3)cc1 | -0.1% | 0% | -2 | -4% | 2.1 | 0.0
Cc1sc(N)nc1-c1c(C)n(C)c2ccccc12 | / | -6% | 13 | 4%[15.4 µM] | -0.3 | -0.2
Cc1ccc(NS(=O)(=O)c2ccc3c(c2)NC(=O)C(C)C(=O)N3)cc1C (configuration not stated) | 1.3% | 11% | 1 | -17% | -1.1 | 0.5

Assay outcomes from PubChem.
